Assay outcomes deposited in PubChem by National Center for Advancing Translational Sciences (NCATS).
StopGo FLuc: FMDV 2A StopGo reporter, firefly signal; HEK cells with a luciferase reporter of 2A StopGo recoding; Potency, µM (highest dose often 57.5 µM), for inactives: top-dose signal change, negative = less light; hit rate 0.23% among 120,000; active = well fitted falling curve with a large enough effect; inconclusive = small, poorly fitted or top-dose-only effect; inactive = no such curve, though single readings can be large or run the other way; note: nearly all actives have a fitted effect of over 60% in size; overnight with compound
2A Renilla: lowers the Renilla signal of an FMDV 2A StopGo reporter. Potency, µM (titrated, usually from 57.5 µM), without a hit: at the top dose signal change, negative = less light. hit rate 0.32% among 120,000. HEK cells with a luciferase reporter of 2A StopGo recoding; active means well fitted falling curve with a large enough effect; inconclusive means small, poorly fitted or top-dose-only effect; inactive means no such curve, though single readings can be large or run the other way; note: nearly all actives have a fitted effect of over 55% in size; overnight with compound
* marks the source's active call; other numbers are inactive results; ? = inconclusive; & = joins results of further samples; [ ] = dose if it differs, or a comment. % is set by controls: 0 for no effect and ±100 for the full control effect; potency is the fitted concentration of half-maximal effect. Some of the compounds tested; rates above refer to the full screens.

The line under a structure holds: StopGo FLuc, 2A Renilla
1: CCN1CCN(c2ccc(NC(=O)c3cccc(NC(=O)c4cccs4)c3)cc2)CC1
  0%, 1%
2: COc1ccc(-c2cc3nc(C)c(CCC(=O)N4CCN(c5cc(C)ccc5C)CC4)c(C)n3n2)c(OC)c1
  -22%, -11%
3: CSc1nc(C)cc(Nc2cccc(C(=O)O)c2)n1
  63%[activator], 5%
4: Cc1cccc(C2CC(=O)Oc3c2c(=O)n(C)c2ccccc32)c1 (stereo unspecified)
  7%, 1%
5: COc1ccc(C(=O)Nc2nnc(S(=O)(=O)N(C)c3ccc(Cl)cc3)s2)cc1OC
  17%, -8%
6: CCCCCOc1ccc(C(C)=O)cc1
  295%[activator], 118%[activator]
7: COc1ccc(CC(=O)NNC(=O)COCC(=O)Nc2ccc(C#N)cc2)cc1
  -1%, -5%
8: N#Cc1cccc(C(=O)Nc2ccc(Cl)cc2C(F)(F)F)c1
  17%, 20%
9: CCc1ccc(OC(=O)CSc2nnc(-c3ccc(OC)c(OC)c3)o2)cc1
  -16%, -20%
10: Cc1ccc(Nc2nc3ccccc3nc2NS(=O)(=O)c2ccc(F)cc2)cc1
  12%, 63%[activator]
11: CCOc1ccc(C(=O)Nc2cc(C)ccc2OCc2cc(=O)n3oc(C)cc3n2)cc1
  128%[activator], 14%
12: O=C(NCc1ccc(NC(=O)C2CC2)cc1)c1ccc[n+]([O-])c1
  7%, -11%
13: COc1ccc(CCNC(=O)Cn2nnc(-c3ccc(Cl)cc3)n2)cc1OC
  30%, 26%
14: Cc1occc1C(=O)Nc1nc(CC(=O)Nc2ccc3c(c2)CCC3)cs1
  147%[activator], -10%
15: COc1ccc(N2CCN(C(=O)CCS(=O)(=O)c3cc(Br)cc4c3N(C(=O)C3CC3)CC4)CC2)cc1
  -5%, 6%
16: COc1ccc(Cl)cc1NC(=O)c1ccc2c(=O)n3c(nc2c1)CCCC3
  19%, 2%
17: COc1ccc(C)cc1CN(C)C(=O)Cn1c(=O)c2c(ncn2C)n(C)c1=O
  -6%, -1%
18: O=C(CSc1nc2ccc(NC(=O)c3ccc(Br)cc3)cc2s1)NC1CC1
  22%, ?
19: CCN(C(=O)Cn1cc(S(=O)(=O)Cc2ccccc2Cl)c2ccccc21)c1ccccc1
  -18%, 36%[activator]
20: CCOC(=O)c1ccc(N2C(=O)c3n[nH]c(-c4ccco4)c3C2c2cccc(O)c2)cc1 (stereo unspecified)
  ?, ?
21: CCOC(=O)CSc1nc(C)c2cc(C)c(C)cc2n1
  -1%, 0%
22: O=C(NCc1ccccc1Cl)C(=O)Nc1cccc2[nH]ccc12
  153%[activator], 243%[activator]
23: O=C(c1cccc(Cl)c1)N1CCC(c2nc3c(nnn3Cc3ccc(F)cc3F)c(=O)[nH]2)CC1
  -4%, -5%
24: COc1ccc(C)cc1NC(=O)Cn1nc2ccc(SC3CCCCC3)nn2c1=O
  -5%, -12%
25: COC(=O)NCCc1ccccc1OC
  78%[activator], 14%
26: CCC12CN3CC(CC)(CN(C1)C3c1cccc(OC)c1O)C2=O (stereo unspecified)
  -14%, -13%
27: CCOC(=O)C1CCCN(CCC(=O)Nc2cccc(C)c2)C1 (stereo unspecified)
  23%, 17%
28: CCOC(=O)CNC(=O)Nc1c(-c2cccnc2)[nH]c2ccccc12
  2%, 1%
29: Cc1ccc(C(=O)/C(=C\c2cccc(Br)c2)c2nc3ccccc3o2)cc1
  ?, ?
30: COc1cc(OC)cc(C(=O)Oc2ccc(C(C)=O)cc2)c1
  12%, 4%

A different layout for 7 compounds above:
# | Molecule | StopGo FLuc | 2A Renilla
21 | CCOC(=O)CSc1nc(C)c2cc(C)c(C)cc2n1 | -1% | 0%
22 | O=C(NCc1ccccc1Cl)C(=O)Nc1cccc2[nH]ccc12 | 153%[activator] | 243%[activator]
23 | O=C(c1cccc(Cl)c1)N1CCC(c2nc3c(nnn3Cc3ccc(F)cc3F)c(=O)[nH]2)CC1 | -4% | -5%
24 | COc1ccc(C)cc1NC(=O)Cn1nc2ccc(SC3CCCCC3)nn2c1=O | -5% | -12%
25 | COC(=O)NCCc1ccccc1OC | 78%[activator] | 14%
26 | CCC12CN3CC(CC)(CN(C1)C3c1cccc(OC)c1O)C2=O (stereo unspecified) | -14% | -13%
27 | CCOC(=O)C1CCCN(CCC(=O)Nc2cccc(C)c2)C1 (stereo unspecified) | 23% | 17%

2 entries from above, reformatted:
26. CCC12CN3CC(CC)(CN(C1)C3c1cccc(OC)c1O)C2=O (stereo unspecified)
27. CCOC(=O)C1CCCN(CCC(=O)Nc2cccc(C)c2)C1 (stereo unspecified)
Compound	26	27
StopGo FLuc	-14%	23%
2A Renilla	-13%	17%

Continuation.
The line under a structure holds: StopGo FLuc, 2A Renilla
31: COc1cc(NC(=O)CSc2ncnc3nc[nH]c23)cc(OC)c1OC
  3%, -5%
32: Cc1ccccc1OCCSc1nc2ccc(NC(=O)c3ccco3)cc2s1
  ?, ?
33: COc1cc(NC(=O)CNC(=O)Cn2ccc3ccccc3c2=O)cc(OC)c1OC
  -4%, 2%
34: Cc1cccc(C(=O)Nc2ccccc2SCc2ccsc2)c1
  99%[activator], 0%
35: Cc1cccc(-c2nc(CS(=O)CC(=O)NCc3ccc(Cl)cc3)c(C)o2)c1 (stereo unspecified)
  1%, -2%
36: Cc1cc(C)c(NC(=O)c2cc3c(s2)CCCCC3)c(C)c1
  -19%, ?
37: COc1ccccc1CNC(=O)c1cc2cc(S(=O)(=O)N3CCCCC3)ccc2n1C
  -8%, 3%
38: Cn1cc(S(=O)(=O)N2CCCCCC2)cc1C(=O)N1CCN(c2ccc(Cl)cc2)CC1
  2%, -11%
39: COC(=O)Cn1cnc2c(sc3nc(C4CCCCC4)c4c(c32)CCC4)c1=O
  6%, 4%
40: CCCN1CCN(c2ncnc3sc(C(=O)Nc4cccc(Cl)c4C)c(C)c23)CC1
  -23%, -14%
41: C=C(C)Cn1c(NCCO)nc2c1c(=O)[nH]c(=O)n2C
  19%, 7%
42: COc1ccc(-c2nc3ccccc3n3c(-c4ccccc4)c4c(=O)n(C)c(=O)n(C)c4c23)cc1OC
  -7%, -7%
43: CCOC(=O)c1c(NC(=O)CCN2CCCCC2)sc2c1CC(C)(C)OC2
  -15%, -15%
44: COC(=O)c1sccc1S(=O)(=O)N(CC(=O)Nc1ccccc1C)c1ccc(Cl)cc1
  -21%, 123%[activator]
45: Cc1ccc(C(C)NC(=O)c2ccc3c(c2)OCCO3)c(C)c1 (stereo unspecified)
  0%, 14%

Complete entries, quoted from the list.
Results for CCOC(=O)c1c(NC(=O)CCN2CCCCC2)sc2c1CC(C)(C)OC2 → StopGo FLuc = -15%; 2A Renilla = -15%
Results for COC(=O)c1sccc1S(=O)(=O)N(CC(=O)Nc1ccccc1C)c1ccc(Cl)cc1 → StopGo FLuc = -21%; 2A Renilla = 123%[activator]

(more compounds)
The line under a structure holds: StopGo FLuc, 2A Renilla
46: Cc1cc(C)cc(C(=O)N2CC(=O)Nc3ccc(Br)cc3C2c2ccccc2)c1 (stereo unspecified)
  -14%, 156%[activator]
47: CCCSc1nnc(NC(=O)Cc2coc3cc(C)ccc23)s1
  18%, 15%
48: Cc1nnc2c(N3CCN(c4ccccc4)CC3)nc3ccc(C(=O)c4ccccc4)cc3n12
  -10%, -10%
49: COC(=O)c1ccc(CN(Cc2ccc(OC)c(OC)c2)S(=O)(=O)c2cc(C(=O)Nc3cccc(C)c3)ccc2F)cc1
  -18%, 13%
50: CN1CCCC(OC(=O)/C=C/c2ccccc2)C1 (stereo unspecified)
  0%, -9%
51: CCOC(=O)c1cnc(N2CCN(c3cccc(C)c3C)CC2)c2ccccc12
  -4%, -8%
52: NC(=O)C1CCN(C(=O)C2CC(c3cccc(F)c3)=NO2)CC1 (stereo unspecified)
  16%, -13%
53: CC(C)(C)c1ccc(OCC(=O)Nc2ccc(C(=O)OC3CCCCC3)cc2)cc1
  -10%, -9%
54: COc1ccc(-c2nn(-c3ccccc3)cc2C2NC(=O)NC(C)=C2C(=O)OC(C)C)cc1OC (stereo unspecified)
  1%, 5%
55: CC(=O)Nc1c(C)nn(-c2ccccc2)c1N1CCC(C(=O)Nc2ccc(Cl)cc2C)CC1
  -18%, -9%
56: O=C(NCc1ccccc1Br)C1CCCN(C(=O)N2CCOc3ccccc32)C1 (stereo unspecified)
  8%, 83%[activator]
57: CC(Sc1ccc2c(c1)OCCO2)C(=O)O (stereo unspecified)
  8%, 12%
58: CCOC(=O)c1c(NC(=O)Cn2nnc(-c3ccccc3)n2)sc(C)c1CC
  -4%, 2%
59: Cc1cc(OCC(=O)N2CCC(c3nc4ccccc4s3)CC2)ccc1Cl
  ?, ?
60: COCCN(Cc1cc2cccc(C)c2[nH]c1=O)C(=O)c1ccc(OC)c(OC)c1
  11%, 6%
61: O=C(CSc1nc2ccccc2nc1Cc1ccc(Cl)cc1)N1CCCCC1
  ?, 9%
62: CCCCOc1ccc(C(=O)Nc2onc3c2CCCC3)cc1
  78%[activator], 22%
63: COc1ccc(C)cc1Nc1nc2ccccc2c2nnc(C)n12
  -7%, -22%
64: O=C(Nc1ccc(F)cc1)C1CC(=O)N(C2CC2)C1 (stereo unspecified)
  12%, 0%
65: COc1ccc(OC)c(NC(=O)c2cc3c(s2)-c2ccccc2SC3)c1
  6%, 10%
66: CS(=O)(=O)N1CCc2cc(C(=O)Nc3ccc(Cl)c(C(F)(F)F)c3)ccc21
  -5%, -11%
67: CCOc1ccc(CCNC(=O)c2ccc3c(c2)N(Cc2ccccc2)C(=O)c2ccccc2S3=O)cc1OCC (stereo unspecified)
  -6%, 3%
68: Cc1cc2nc(SCC(=O)Nc3ccc4c(c3)OCO4)n(C)c(=O)c2[nH]1
  21%, 58%[activator]
69: O=C(Nc1ccc(-c2nc3cc(NC(=O)c4ccc(Cl)cc4)ccc3o2)cc1)c1ccc(Cl)cc1
  -21%, -7%
70: Cc1cc(C)n(-c2nc3c(c(=O)n(CCc4ccccc4)c(=O)n3C)n2CC(C)C)n1
  ?, ?
71: O=C(NCCc1c[nH]c2ccccc12)c1ccccn1
  192%[activator], -5%
72: CC(C)C(=O)N1CCN(c2ccc(F)cc2)CC1
  -14%, -15%
73: Cn1cc(C(=O)N2CCC(C(=O)NCc3ccccc3)CC2)c2ccccc21
  -11%, -3%
74: O=C(OCC1CC1(Cl)Cl)c1ccccc1C(=O)c1ccc(Cl)cc1 (stereo unspecified)
  0%, 297%[activator]
75: Cc1cc(C(=O)CSc2nnc(COc3ccc(Cl)cc3)n2C)c(C)n1Cc1cccs1
  20%, 45%[activator]
76: CCCCn1c(=O)[nH]c(=O)c2c1nc(CNc1cc(F)ccc1C)n2CC
  -24%, -26%
77: COc1cccc2sc(N(Cc3cccnc3)C(=O)c3ccc(S(=O)(=O)N(C)C)cc3)nc12
  -17%&-11%, -12%&-2%
78: CCOc1ccc(NC(=O)C(C)Oc2ccc3ccc(=O)oc3c2)cc1 (stereo unspecified)
  14%, -4%
79: CN1CCN(CCCCNC(=O)c2cccc(C#N)c2)CC1
  -5%, -8%
80: COC(=O)c1cc(C(=O)OCCCC(=O)c2ccc(F)cc2)cc([N+](=O)[O-])c1
  16%, 13%
81: CNC(=O)NC(=O)CN1CCN(c2oc(C3CC3)nc2C#N)CC1
  -8%, -7%
82: Cc1sc(-c2nc(-c3cccc(F)c3)no2)cc1S(=O)(=O)N1CCC(C)CC1
  4%, 1%
83: Cc1nc(Cl)c(C(=O)O)c(C)c1Cl
  -6%, -1%
84: COc1cccc(NC(=O)CCN2CCN(CCO)CC2)c1
  -3%, -10%
85: CCN(CC)S(=O)(=O)c1ccc2c(c1)N(CC(=O)N1CCN(c3ccc(F)cc3)CC1)C(=O)CO2
  -18%, 2%
86: N#Cc1ccc(Oc2ccc(C#N)cc2)cc1
  21%, 4%
87: CCCn1c(NCc2c[nH]c3ccccc23)nc2ccccc21
  105%[activator], -6%
88: Cc1ccc(N/N=C/c2ccc(F)c(F)c2)cc1Cl
  219%[activator], 29%
89: O=C(CN1C(=O)CCSc2ccc(S(=O)(=O)N3CCCC3)cc21)Nc1cccc(Cl)c1
  -22%, 1%
